Assay outcomes as filed in PubChem.
SARS PLpro yeast – SARS-CoV PLP inhibition in yeast | S. cerevisiae expressing SARS-CoV PLpro, growth rescue; control for the full effect not named in the record | 330,000 compounds, 0.19% hits | Potency, µM (titrated, usually from 32.9 µM), inactives show top-dose activity, positive = growth rescue; active means well fitted rising curve with a large enough effect; inconclusive means small, poorly fitted or top-dose-only effect; inactive means no such curve, though single readings can be large or run the other way; further: 0% is about no effect; nearly all actives have a fitted effect of over 55% in size; growth read by luminescence after 48 h
Cruzain noTriton – blocks cruzain activity in detergent-free assay. P25779. purified cruzain, Z-FR-AMC fluorescence, no detergent. Potency, µM, for inactives: max response, negative = inhibition, most hits filed as inhibitors. 200,000 compounds, 2.3% hits;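 further: plate controls were enzyme without inhibitor for no effect and buffer without enzyme for full effect; nearly all actives have a fitted effect of over 40% in size; top concentration of the series not given in the record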
Target sequence (P25779 123-467 limits assumed): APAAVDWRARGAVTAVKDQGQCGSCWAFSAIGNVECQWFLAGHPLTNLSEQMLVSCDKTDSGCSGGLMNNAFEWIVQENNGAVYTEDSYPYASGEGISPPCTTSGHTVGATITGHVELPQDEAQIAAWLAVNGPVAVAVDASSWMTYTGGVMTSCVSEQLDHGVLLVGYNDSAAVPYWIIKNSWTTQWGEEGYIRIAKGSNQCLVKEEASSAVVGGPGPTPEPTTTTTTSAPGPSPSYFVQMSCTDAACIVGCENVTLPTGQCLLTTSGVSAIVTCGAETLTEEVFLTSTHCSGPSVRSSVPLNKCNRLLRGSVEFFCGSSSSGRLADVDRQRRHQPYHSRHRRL
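Purified cruzain at 1.5 nM, pre-incubated 15 min with compound at room temperature in 100 mM sodium acetate pH 5.5, 5 mM DTT, 0.00005% Triton X-100. Reaction started with 2 uM Z-FR-AMC; AMC fluorescence increase over 60 s gives rate.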
RE007 growth inh – less growth of the S. pombe RE007 Vpr strain; AID 651644; Potency, µM (highest dose often 92.2 µM), for the others: at the top dose activity change, negative = less growth; 360,000 compounds, 0.21% hits; S. pombe RE007 Vpr strain, BacTiter-Glo ATP luminescence, 24 h; control for the full effect not named in the record; active = well fitted falling curve with a large enough effect; inconclusive = small, poorly fitted or top-dose-only effect; inactive = no such curve, though single readings can be large or run the other way;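 further: on the % scale 0 is the no-effect control and ±100 the full control effect; nearly all actives have a fitted effect of over 50% in size; the assay follows cell death caused by Vpr and the record does not say whether a fall means rescue or toxicity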
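Fission yeast strain RE007, carrying one chromosomally integrated HIV-1 vpr copy, was seeded at OD 0.01 in PMG+AL medium with 23 nL pinned compound. After 24 h at 30 °C and 99% humidity, viability was read by BacTiter-Glo luminescence.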
MARV entry inh – inhibitors of Marburg virus binding or cell entry; Marburg virus pseudotyped entry inhibition, cell reporter; control for the full effect not named in the record; about a third of the inactives were read at about 46 µM; Potency, µM (series often up to 37.8 µM), inactives show at the top dose activity change, negative = inhibition, usual class: inhibitors; 300,000 compounds, 1.8% hits; AID 540276; active = well fitted inhibition curve with a large enough effect; inconclusive = small, poorly fitted or top-dose-only effect, or effect the other way; inactive = flat fitted curve, though single readings scatter; tested in HEK293 cells; about a fifth of its hits are not listed in these tables; further: on the % scale 0 is the no-effect control and ±100 the full control effect; luciferase read-out
Lassa entry inh – inhibitors of Lassa virus binding or cell entry; Lassa virus pseudotype entry inhibition, cell reporter; control for the full effect not named in the record; Potency, µM (series often up to 37.9 µM), without a hit: at the top dose activity change, negative = inhibition, usual class: inhibitors; 300,000 compounds, 1.2% hits; AID 540256; active means well fitted inhibition curve with a large enough effect; inconclusive means small, poorly fitted or top-dose-only effect, or effect the other way; inactive means flat fitted curve, though single readings scatter; tested in HEK293 cells; further: on the % scale 0 is the no-effect control and ±100 the full control effect; nearly all actives have a fitted effect of over 50% in size; luciferase read-out
NS1 inh – blocks influenza NS1 protein function. 270,000 compounds, 0.4% hits. S. cerevisiae slowed by influenza A NS1, growth recovery by OD600. Potency, µM (highest dose often 46.1 µM), inactives show top-dose activity, positive = more growth; active means well fitted rising curve with a large enough effect; inconclusive means small, poorly fitted or top-dose-only effect; inactive means no such curve, though single readings can be large or run the other way; further: nearly all actives have a fitted effect of over 50% in size
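Growth recovery, yeast-based: influenza A NS1 expressed in S. cerevisiae causes slow growth, and suppressors are detected by OD600. The parent strain without NS1 is used as positive control.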
2A StopGo – lowers the luciferase signal of an FMDV 2A StopGo reporter; human cells with a luciferase reporter of 2A StopGo recoding; control for the full effect not named in the record; Potency, µM (top dose mostly 57.9 µM), for the others: at the highest dose signal change, negative = less light; 410,000 compounds, 1.2% hits; AID 1159524; active = well fitted falling curve with a large enough effect; inconclusive = small, poorly fitted or top-dose-only effect; inactive = no such curve, though single readings can be large or run the other way; tested in HEK293T cells; further: on the % scale 0 is the no-effect control and ±100 the full control effect; nearly all actives have a fitted effect of over 45% in size; luciferase light after 4 h
Cruzain inh Det – blocks cruzain activity in presence of Triton detergent; P25779; purified cruzain, Z-FR-AMC fluorescence, 0.01% Triton; Potency, µM, inactives show max response, negative = inhibition, usual class: inhibitors; 200,000 compounds, 0.43% hits; AID 1478;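 further: plate controls were neutral wells for no effect and buffer without enzyme for full effect; nearly all actives have a fitted effect of over 40% in size; top concentration of the series not given in the record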
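In this qHTS format, compounds are incubated with 1.5 nM cruzain for 15 min at room temperature before 2 uM Z-FR-AMC is added. Release of AMC is followed at 360/450 nm, and progress is taken as the 60 s fluorescence difference.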
* marks the source's active call; other numbers are inactive results; ? = inconclusive; . = no result given; & = joins results of further samples; [ ] = remark or other dose. Unless noted, the call rests on the fitted dose curve; in most records, active means well fitted curve in the direction sought with a large enough effect; inconclusive means small, poorly fitted or top-dose-only effect, or another doubt; inactive means no such curve, though single readings can be large; an effect the other way counts as inactive or inconclusive. Potency means the concentration at half of the fitted maximal effect.

SMILES	SARS PLpro yeast	Cruzain noTriton	RE007 growth inh	MARV entry inh	Lassa entry inh	NS1 inh	2A StopGo	Cruzain inh Det
Cc1ccc(CSC2=Nc3sccc3C3=NC(=O)CN23)cc1	5.8%	20µM*	15.1%[3.69 µM]	-21.0%	3.8%	21.2%	-12.1%	-8.0%
CCC(CC)C(=O)Nc1c2c(nn1-c1ccc(OC)cc1)CS(=O)(=O)C2	-5.9%	-6.3%	6.3%	12.6%	9.1%	-12.3%	-20.8%	6.4%
CC(=O)OCc1c(C(F)(F)F)nn(C)c1Sc1ccccc1	-4.4%	2.0%	2.0%	18.4%	21.6%	-4.8%	4.8%	-6.7%
CCCCCCCC(=O)Nc1ccc(C(=O)N/N=C/c2cccc([N+](=O)[O-])c2)cc1	7.5%	-17.1%	0.5%	?	?	1.9%	-9.6%	-6.3%
CCN(CC)C(=O)c1sc2c(c1C)c(=O)n(-c1ccc(Cl)c(Cl)c1)c(=O)n2Cc1cc(=O)n2c(C)cccc2n1	.	5.2%	.	.	9.6%[46.1 µM]	.	?	1.7%
COc1ccc(N(CC(=O)N2CCOCC2)S(C)(=O)=O)cc1	16.5%	.	2.8%	8.3%	11.2%	0.4%	-6.4%	.
COc1ccc(C(=O)OCC(=O)c2cc(OC)ccc2OC)c(OC)c1	-5.2%	?	0.8%	?	?	-53.5%	-12.4%	-5.9%
COc1ccccc1CNC(=O)c1ccc(S(=O)(=O)N2CCCC2)cc1	1.0%	6.0%	-2.9%	0.3%	-5.9%	-16.4%	-11.0%	-1.8%
COc1ccc([N+](=O)[O-])cc1/C=N/NC(=O)Cc1ccccc1	-0.5%	.	-20.0%	.	.	-1.4%	-10.1%	.
CCOC(=O)N1CCC(Nc2c(NCCN3CCN(c4cccc(Cl)c4)CC3)c(=O)c2=O)CC1	12.0%	-2.4%	0.8%	.	.	-1.8%	-12.1%	4.5%
C=C(C)COc1ccc(-c2n[nH]c(C)c2-c2ccccc2OC)c(O)c1	-9.2%	-7.8%	1.4%	-10.5%	7.08µM*	-64.9%	?	-11.4%
Cc1cc(C)cc(NC(=O)COC(=O)COc2ccc(N(C)S(=O)(=O)c3cccs3)cc2)c1	-0.8%	.	-16.0%	-13.8%	6.2%	.	6.0%	.
O=C(O)c1cc(O)ccc1NC(=O)C1CCCO1 (stereo unspecified)	-2.5%	.	10.4%	.	.	-12.2%	3.2%	.
Cc1c(NC(=O)c2c(F)cccc2F)c(=O)n(-c2ccccc2)n1C	-0.5%	5.7%	-11.1%	-4.3%	-0.8%	-6.2%	-15.4%	5.6%
COc1cc2c(cc1OC)-c1c(OC)c(OC)c(OC)c3ccnc(c13)C2=O	0.9%	?	-10.8%	18.4µM*	?	-5.1%	?	-6.3%
Cc1ccc(C2=NN3C(=O)c4ccccc4C3C2)cc1 (stereo unspecified)	-0.1%	.	-25.0%	.	.	-3.7%	93.1%[activator]	.
CS/C(=N\S(=O)(=O)c1cccs1)NC(=O)CSc1nc2ccccc2s1	-1.0%	?	5.2%&-24.0%	?	8.2%[46.1 µM]	-5.0%	-10.7%&-21.6%	?
COc1ccccc1N1CCN(S(=O)(=O)CCNC(=O)C23CC4CC(CC(C4)C2)C3)CC1	-0.9%	.	3.0%	.	.	-21.4%	14.1µM*	.
Cc1cccc(C(=O)OCc2cc(=O)n3ccsc3n2)c1	.	-8.6%	.	.	24.7%[46.1 µM]	.	-13.2%	-2.1%
Cc1ccc(S(=O)(=O)N(C)C)cc1NC(=O)COC(=O)/C=C/c1cccs1	-1.9%	.	-17.9%	1.9%	3.7%	.	3.4%	.
O=c1c(O)c(-c2ccc(O)c(O)c2)oc2cc(O)ccc12	.	2.1%&-10.3%	4.3%	.	.	.	14.5%&37.1%	8.7%&-0.7%
COc1ccccc1CN(Cc1nc2ccccc2c(=O)[nH]1)C(=O)Nc1ccc(C)cc1	-3.2%	10.4%	-0.8%	-18.7%	-10.4%	-20.1%	.	-4.4%
O=C(c1cc2sccc2n1Cc1ccccc1)N1CCCc2ccccc21	-8.5%	20µM*	7.3%	?	-1.1%	14.7%	-9.0%	-3.3%
COc1ccccc1N1CCN(c2ccc(-c3ccccc3)nn2)CC1	-0.5%	-1.5%	-20.3%	1.58µM*	3.55µM*	-31.4%	-60.5%	1.3%
Cc1cc(C)cc(N)c1	-1.0%	5.8%	-6.1%	.	.	.	-23.2%	-2.2%
CCOC(=O)c1c(C)[nH]c(C)c1C(=O)CSc1nc(N)cc(=O)[nH]1	1.0%	4.7%	-9.3%	0.5%	-12.3%	5.4%	8.2%	1.7%
COc1ccc(C2N(C(=O)C(F)(F)F)C(C)CN2S(=O)(=O)c2ccc(C)cc2)cc1 (stereo unspecified)	-1.3%	.	-17.9%	-24.6%[46.1 µM]	.	-3.4%	-2.7%	.
Cc1ccc(N(CC(=O)N2CCN(c3ccc(Cl)cc3)CC2)S(=O)(=O)c2c(C)nn(C)c2C)cc1	.	-0.5%	.	-0.7%[46.1 µM]	0.0%[46.1 µM]	.	-12.8%	-0.5%
O=C(NN=Cc1ccc2c(c1)OCO2)c1ccccc1	.	.	10.4%	?	?	.	1.0%	.
Cc1cccc(NC(=S)NNC(=O)c2csc(C)c2)c1	-1.0%	3.0%	-1.7%	?	?	-23.5%	21.2%	0.2%

Record cards, from the list above. Order of values: SARS PLpro yeast	Cruzain noTriton	RE007 growth inh	MARV entry inh	Lassa entry inh	NS1 inh	2A StopGo	Cruzain inh Det
COc1ccc(C2N(C(=O)C(F)(F)F)C(C)CN2S(=O)(=O)c2ccc(C)cc2)cc1 (stereo unspecified) across the screens: -1.3%	.	-17.9%	-24.6%[46.1 µM]	.	-3.4%	-2.7%	.
O=C(NN=Cc1ccc2c(c1)OCO2)c1ccccc1 across the screens: .	.	10.4%	?	?	.	1.0%	.

New compounds follow.
SMILES	SARS PLpro yeast	Cruzain noTriton	RE007 growth inh	MARV entry inh	Lassa entry inh	NS1 inh	2A StopGo	Cruzain inh Det
COc1ccccc1NC(=O)CCCCCN1C(=O)c2cccc([N+](=O)[O-])c2C1=O	1.5%	.	-4.4%	.	.	-1.4%	-9.6%	.
O=C1C(=O)N(CCN2CCOCC2)C(c2ccccc2F)/C1=C(\O)c1ccc(S(=O)(=O)N2CCOCC2)cc1 (stereo unspecified)	0.7%	.	5.1%	-0.1%[46.1 µM]	?	4.2%	-14.3%	.
Cn1cccc1/C=C1\CCc2ccccc2C1=O	-18.6%	.	35.5µM*	?	?	.	?	.
CCC(CO)N=CC1=C(O)CC(C)(C)CC1=O (stereo unspecified)	-0.7%	5.9%	-2.3%	8.0%[46.1 µM]	20.5%	-3.8%	-15.1%	0.8%
COc1ccc(-c2cc(=O)oc3cc(OCC(=O)N[C@@H](Cc4c[nH]c5ccccc45)C(=O)O)ccc23)cc1	?	.	-11.9%	.	.	-9.2%	-14.3%	.
O=C(COc1ccc2ccc(=O)oc2c1)Nc1cccnc1	2.2%	.	2.8%	.	.	-7.3%	-3.3%	.
CC(C)(C)C1CC=C2C(C#N)=C(N)C(C#N)(C#N)C(c3cccs3)C2C1 (stereo unspecified)	-0.9%	?	.	9.6%	.	10.7%	.	-16.3%
Cc1ccc(S(=O)(=O)Nc2cc(C)nn2-c2ccccc2)cc1	9.3%	-7.1%	9.2%	-20.0%	15.1%	0.2%	-4.5%	8.9%
CC1CCCCC1NC(=O)c1cc(S(=O)(=O)N2CCOCC2)ccc1Cl (stereo unspecified)	-6.3%	.	13.4%	-15.6%[46.1 µM]	-24.3%[46.1 µM]	.	-1.0%	.
C/C(=N\OC(=O)NC1CCCCC1)c1sc(-c2ccccc2)nc1C	-26.0%	-0.3%	-11.4%[3.69 µM]	?	?	-7.1%	?	-3.2%
COc1ccccc1/C=C(\NC(=O)c1cccc(C)c1)C(=O)Nc1ccccn1	1.7%	.	-7.0%	5.9%	?	5.5%	27.9%	.
COc1ccc(-c2nnc(NC(=O)CS(=O)(=O)c3ccc(F)cc3)o2)c(OC)c1	-1.8%	.	4.4%	-17.1%[46.1 µM]	11.9%	.	3.6%	.
O=C(COC(=O)C1=COCCO1)Nc1ccccc1Oc1ccccc1	0.7%	-5.1%	-0.8%	-2.8%	-3.8%	-10.5%	-18.5%	5.7%
COC(=O)c1ccc(NC(=O)Nc2ccc(OC)c(OC)c2)cc1	0.2%	.	-0.9%	-0.3%	25.4%	.	-7.2%	.
CCc1nnc(NC(=O)c2ccc(N(C)S(=O)(=O)c3ccccc3)cc2)s1	19.0%	-8.9%	-2.2%	3.4%&3.4%	-15.3%	3.2%	-1.3%	-2.0%
Cc1ccc(N(CC(=O)NCCSCc2ccco2)S(=O)(=O)c2ccc(C)cc2)cc1	-0.6%	9.5%	-18.8%	?	-7.3%	-56.8%	7.0%	1.8%
O=C(Cn1ncc2c1-c1ccccc1OC2)N(Cc1ccco1)C1CCCCC1	2.1%	3.7%	0.1%	1.5%	.	-47.8%	-17.0%	-28.4%
CC1=C(C(=O)NCCN2CCOCC2)C2(CCC(C)CC2)OC1=O (stereo unspecified)	9.2%	5.1%	-8.7%	.	.	?	1.2%	5.0%
CN(C)c1ccc(C(=O)OCC(=O)N2CCCC2)cc1	-1.2%	.	26.8%	?	-3.0%	-1.8%	41.8%[activator]	.
Cc1cc2[nH]c(=O)c(=O)[nH]c2cc1S(=O)(=O)NC1CCC(C)CC1 (stereo unspecified)	3.0%	.	-5.5%	.	.	10.1%	12.8%	.
CCN(Cc1ccccc1)Cc1nc(CCc2ccccc2)no1	-0.4%	.	-12.3%	.	.	-4.8%	-22.9%	.
CC1=NNC(=O)C1C(c1cccc(O)c1)C(C#N)C#N (stereo unspecified)	1.2%	.	-0.6%	.	.	-0.8%	-18.0%	.
CCOc1ccc(S(=O)(=O)NCCC(=O)NCCOc2ccccc2OC)cc1	4.8%	.	-4.0%	-1.7%[46.1 µM]	.	.	23.0%	.
CCOc1ccc(-c2cc(NC(=O)Nc3cccc(C(C)=O)c3)c(C(=O)OC)s2)cc1	.	20.5%	.	?	?	.	15.6%	-1.8%
CCCCn1c(N)c(N(CC)C(=O)c2cccc(OC)c2)c(=O)[nH]c1=O	-3.3%	.	7.4%	3.5%[46.1 µM]	24.4%[46.1 µM]	6.3%	-8.0%	.
